StopGo reporter – High Throughput Screening for Foot and Mouth Disease Virus Antivirals; human cells with a luciferase reporter of 2A StopGo recoding; control for the full effect not named in the record; Potency, µM (highest dose often 57.9 µM), inactives show top-dose signal change, negative = less light; hit rate 1.2% among 410,000; active = well fitted falling curve with a large enough effect; inconclusive = small, poorly fitted or top-dose-only effect; inactive = no such curve, though single readings can be large or run the other way; tested in HEK293T cells; note: % is set by controls: 0 for no effect and ±100 for the full control effect; nearly all actives have a fitted effect of over 45% in size; luciferase light after 4 h
RE007 growth inh – qHTS Assay for Inhibitors of the HIV-1 protein Vpr | S. pombe RE007 Vpr strain, BacTiter-Glo ATP luminescence, 24 h; control for the full effect not named in the record | Potency, µM (highest dose often 92.2 µM), without a hit: at the top dose activity change, negative = less growth | hit rate 0.21% among 360,000; active = well fitted falling curve with a large enough effect; inconclusive = small, poorly fitted or top-dose-only effect; inactive = no such curve, though single readings can be large or run the other way;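 note: % is set by controls: 0 for no effect and ±100 for the full control effect; nearly all actives have a fitted effect of over 50% in size; the assay follows cell death caused by Vpr and the record does not say whether a fall means rescue or toxicity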
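Fission yeast RE007 carrying one integrated HIV-1 vpr copy, seeded at OD 0.01 in PMG+AL medium with 23 nL pinned compound. Grown 24 h at 30 degrees; viability read by BacTiter-Glo luminescence after 5 min.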
NS1 function inh – qHTS Assay for Inhibitors of Influenza NS1 Protein Function. S. cerevisiae slowed by influenza A NS1, growth recovery by OD600. Potency, µM (series often up to 46.1 µM), inactives show at the highest dose activity, positive = more growth. hit rate 0.4% among 270,000. AID 2326, 2010; active means well fitted rising curve with a large enough effect; inconclusive means small, poorly fitted or top-dose-only effect; inactive means no such curve, though single readings can be large or run the other way; note: nearly all actives have a fitted effect of over 50% in size
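Read-out: OD600 growth recovery of NS1-expressing budding yeast. Cells grown overnight at 30C in -URA glucose medium, washed, resuspended and diluted 1:100 in 2% galactose assay medium, pH 6.0. Same strain lacking NS1 served as positive control.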
Cruzain noTriton – qHTS Assay for Promiscuous and Specific Inhibitors of Cruzain (without detergent). purified cruzain, Z-FR-AMC fluorescence, no detergent. Potency, µM, for inactives: max response, negative = inhibition, usual class: inhibitors. hit rate 2.3% among 200,000. AID 1476, 2009;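 note: plate controls were enzyme without inhibitor for no effect and buffer without enzyme for full effect; nearly all actives have a fitted effect of over 40% in size; top concentration of the series not given in the record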
Target sequence (P25779 123-467 limits assumed): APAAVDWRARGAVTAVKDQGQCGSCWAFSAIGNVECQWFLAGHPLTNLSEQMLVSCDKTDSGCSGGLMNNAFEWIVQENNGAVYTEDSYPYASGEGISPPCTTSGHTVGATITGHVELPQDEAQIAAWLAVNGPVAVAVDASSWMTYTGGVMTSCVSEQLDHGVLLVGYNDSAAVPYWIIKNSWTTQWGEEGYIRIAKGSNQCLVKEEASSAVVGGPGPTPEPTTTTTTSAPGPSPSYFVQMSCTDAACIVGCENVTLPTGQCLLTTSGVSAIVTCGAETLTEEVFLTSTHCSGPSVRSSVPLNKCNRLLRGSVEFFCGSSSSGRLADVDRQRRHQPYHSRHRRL
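Purified cruzain at 1.5 nM, pre-incubated 15 min with compound at room temperature in 100 mM sodium acetate pH 5.5, 5 mM DTT, 0.00005% Triton X-100. Reaction started with 2 uM Z-FR-AMC; AMC fluorescence increase over 60 s gives rate.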
Cruzain inh Det – qHTS Assay for Promiscuous and Specific Inhibitors of Cruzain (with detergent) | purified cruzain, Z-FR-AMC fluorescence, 0.01% Triton | hit rate 0.43% among 200,000 | Potency, µM, for the others: max response, negative = inhibition, hits mostly inhibitors | Cruzipain (Trypanosoma cruzi), P25779;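 note: plate controls were neutral wells for no effect and buffer without enzyme for full effect; nearly all actives have a fitted effect of over 40% in size; top concentration of the series not given in the record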
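Enzyme 1.5 nM, Z-FR-AMC 2 uM, NaOAc 100 mM pH 5.5, DTT 5 mM, Triton X-100 0.01%; 15 min RT compound preincubation; kinetic ex360/em450, 60 s delta.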
LASV entry inh – qHTS for Inhibitors of binding or entry into cells for Lassa Virus; Lassa virus pseudotype entry inhibition, cell reporter; control for the full effect not named in the record; Potency, µM (series often up to 37.9 µM), without a hit: at the highest dose activity change, negative = inhibition, most hits filed as inhibitors; hit rate 1.2% among 300,000; AID 540256, 2011; active means well fitted inhibition curve with a large enough effect; inconclusive means small, poorly fitted or top-dose-only effect, or effect the other way; inactive means flat fitted curve, though single readings scatter; tested in HEK293 cells; note: % is set by controls: 0 for no effect and ±100 for the full control effect; nearly all actives have a fitted effect of over 50% in size; luciferase read-out
Marburg entry inh – qHTS for inhibitors of binding or entry into cells for Marburg Virus; Marburg virus pseudotyped entry inhibition, cell reporter; control for the full effect not named in the record; about a third of the inactives were read at about 46 µM; Potency, µM (highest dose often 37.8 µM), inactives show at the top dose activity change, negative = inhibition, usual class: inhibitors; hit rate 1.8% among 300,000; AID 540276, 2011; active = well fitted inhibition curve with a large enough effect; inconclusive = small, poorly fitted or top-dose-only effect, or effect the other way; inactive = flat fitted curve, though single readings scatter; tested in HEK293 cells; about a fifth of its hits are not listed in these tables; note: % is set by controls: 0 for no effect and ±100 for the full control effect; luciferase read-out
SARS PLpro yeast – qHTS of Yeast-based Assay for SARS-CoV PLP | S. cerevisiae expressing SARS-CoV PLpro, growth rescue; control for the full effect not named in the record | hit rate 0.19% among 330,000 | Potency, µM (doses to about 32.9 µM), inactives show top-dose activity, positive = growth rescue; active means well fitted rising curve with a large enough effect; inconclusive means small, poorly fitted or top-dose-only effect; inactive means no such curve, though single readings can be large or run the other way; note: 0% is about no effect; nearly all actives have a fitted effect of over 55% in size; growth read by luminescence after 48 h
Starred values were filed as active, the others as inactive; u = inconclusive; x = not tested or not shown; & = joins results of further samples; [ ] = another dose, or the depositor's remark. Unless noted, calls come from the whole dose curve; as a rule, active = well fitted curve in the direction sought with a large enough effect; inconclusive = small, poorly fitted or top-dose-only effect, or another doubt; inactive = no such curve, though single readings can be large; an effect the other way counts as inactive or inconclusive. Potency is the fitted concentration of half-maximal effect. Not a hit list; about 4.6% have a hit in one of these screens.

SMILES	StopGo reporter	RE007 growth inh	NS1 function inh	Cruzain noTriton	Cruzain inh Det	LASV entry inh	Marburg entry inh	SARS PLpro yeast
Cc1ccc(S(=O)(=O)CCC(=O)NCc2ccccc2Cl)cc1	3%	25%	10%	-8%	-0.4%	13%	13%	14%
Cc1ccc(/C=C/C(=O)Nc2nc(-c3cccs3)ns2)cc1	0%	x	x	u	-3.9%	-2%[46.1 µM]	8%[46.1 µM]	x
COCCCn1c(SCC(=O)N2CCc3ccccc32)nnc1-c1ccoc1C	7%	-3%	5%	x	x	-5%	-8%	x
COC(=O)c1ccc(C23CC4(C2)[C@H](CN(Cc2ccc(C(F)(F)F)cc2)[C@@H]4c2ccccc2)C3c2ccc(Cl)nc2)cc1 (stereo partly drawn)	-15%	0%	6%	-4%	-1.5%	x	x	-2%
CCCN(C(=O)c1cc(S(=O)(=O)N2CCCCCC2)ccc1OC)C1CCS(=O)(=O)C1 (stereo not drawn)	-20%	-8%	x	x	x	-13%	-1%	4%
Cc1nnc(-c2ccco2)c2cn(-c3cccc(Br)c3)nc12	22µM*	u	-2%	u	-11%	u	-16%[46.1 µM]	4%
CN1CCN(Cc2cn3cccnc3n2)CC1	-9%	2%	x	x	x	1%	4%	6%
COc1ccc(CN2C(=O)c3cccnc3C2O)cc1 (stereo not drawn)	-15%	12%	9%	-17%	-18%	-1%	6%	-4%
O=C(COc1ccc(S(=O)(=O)N2CCCC2)cc1)N1CCN(c2ccccc2F)CC1	-10%	-11%	-10%	x	x	4%[46.1 µM]	-15%[46.1 µM]	1%
CCCN(CCC)CCNC(=O)C1c2ccccc2C(=O)N(CCOC)C1c1ccc(F)cc1 (stereo not drawn)	3%	6%	1%	0%	-2.8%	-24%	u	6%
COc1ccc(OCC(O)Cn2c(=N)n(CCN3CCOCC3)c3ccccc32)cc1 (stereo not drawn)	11%	-16%	-6%	4%	2.4%	6%	u	-2%
Cc1ccc(-n2ncc(C(=O)N3CCN(C4CCCCC4)CC3)c2C2CCN(C(=O)OC(C)(C)C)CC2)cc1	-23%	x	x	-17%	0.2%	u	x	x
CCOc1ccc(N(CC(=O)NCc2cccc(OC)c2)S(=O)(=O)c2c(C)noc2C)cc1	1%	2%	-38%	13%	3.3%	-4%	u	-5%
C#CCOCCOCCOCCNc1nc(N2CCN(C(=O)[C@H](Cc3cc4ccccc4[nH]3)n3cc([C@@H](N)Cc4ccc(O)cc4)nn3)CC2)nc(N2CCN(C(=O)[C@H](Cc3cc4ccccc4[nH]3)n3cc([C@@H](N)CC(C)C)nn3)CC2)n1	-15%	8%	-15%	x	x	x	x	-3%
COc1ccc(-c2noc(CSc3nc4ccc(C)cc4[nH]3)n2)cc1	0%	x	x	-9%	-22%	-24%[46.1 µM]	-22%[46.1 µM]	x
Cn1cccc1C(NC(=O)c1ccccc1)C(Cl)(Cl)Cl (stereo not drawn)	-6%	-2%	u	x	x	x	x	1%
COc1ccc(/C=N/NC(=O)c2cccc(NC(=O)c3ccc(F)cc3)c2)c(C(=O)O)c1OC	3%	-17%	x	x	x	5%[46.1 µM]	u	1%
CS(=O)(=O)N1CCN=C1SCc1ccc(F)cc1	1%	4%	6%	x	x	x	x	-4%
Cc1cccc(C(=O)O/N=C(\N)CS(=O)(=O)c2ccccc2)c1	6%	-2%	1%	x	x	2%[46.1 µM]	2%[46.1 µM]	5%
O=C(CCCCCn1c(=O)[nH]c2ccccc2c1=O)N1CCN(c2ccc(Cl)cc2)CC1	13%	x	x	18%	-2.9%	u	x	x
CN1CCN(C(=O)C2CCC(CNS(=O)(=O)c3cccc4cccnc34)CC2)CC1 (stereo not drawn)	-21%	-9%	3%	-7%	7.0%	x	3%	5%
COc1ccc(CN(C)C(=O)c2[nH]c(C)c(C(C)=O)c2C)c(OC)c1OC	-25%	-12%	-4%	x	x	u	-28%[46.1 µM]	-4%
Cc1ccc(C)c(CSc2nnc(C)c(=O)[nH]2)c1	-16%	-8%	x	x	x	10%	0%[46.1 µM]	-2%
CCCC(NC(=O)CCc1c(C)c2cc3c(-c4ccccc4)coc3cc2oc1=O)C(=O)O (stereo not drawn)	-17%	-9%	12%	x	x	x	x	1%
CC(C)NC(=O)C1CCN(C(=O)C(C(=O)c2ccccc2)n2cc(Cl)ccc2=O)CC1 (stereo not drawn)	6%	-4%	2%	1%	1.9%	1%	29%	3%
CCOc1ccc2[nH]cc(S(=O)(=O)c3ccc(Cl)cc3)c(=O)c2c1	-18%	-5%	-4%	x	x	x	x	-4%
COc1ccc(NC(=O)CCNS(=O)(=O)c2cccc3nonc23)cc1	4%&-3%	16%	3%	-3%	-1.6%	-14%	0%&14%[46.1 µM]	1%
COC(=O)c1sccc1NC(=O)C1C2C=CC(O2)C1C(=O)O (stereo not drawn)	-12%	8%	-12%	-5%	-1.1%	15%	0%	-2%
C#CCNc1nc(C)nc2c1nnn2Cc1ccccc1F	-17%	-5%	-4%	6%	0.6%	-1%	-2%	1%
CSc1nc2ccccc2n1Cc1c(Cl)cccc1Cl	u	-24%	-8%	-5%	1.9%	3%	u	10%
CCOc1cc(N2CCOCC2)c(OCC)cc1NC(=O)c1cnccn1	-21%	-29%	x	x	x	u	-9%	17%
CCCCNC(=O)CN1C(=O)CSc2ccc(S(=O)(=O)N3CCC(C)CC3)cc21	-5%	x	x	-2%	-2.9%	x	u	x
COc1ccccc1NS(=O)(=O)c1ccc(C)c(NC(=O)NCCCl)c1	11%	-10%	1%	x	x	-3%	1%[46.1 µM]	6%
Cc1ccc(C)c(NC(=O)CSc2nc3c(oc4ccccc43)c(=O)n2-c2ccccc2)c1	0%	x	23%	u	-4.4%	-9%	u	3%
CCOC(=O)Cc1csc(NC(=O)CSc2nnc3ccccn23)n1	-7%	8%	x	x	x	-10%	14%[46.1 µM]	0%
COc1cccc2c1-c1c(C(=O)O)cccc1C2=O	-3%	1%	-7%	x	x	x	x	6%
COc1ccc(CNC(=O)CN2CCC(NC(=O)c3cccc(OC)c3)CC2)cc1	1%	-8%	x	x	x	2%	-2%[46.1 µM]	x
Cc1ccc(-n2nc3ccc(NC(=O)c4ccco4)cc3n2)cc1	43%[activator]	23%	-10%	-5%	-12%	15%	7%	-20%
O=C(CN1CCN(S(=O)(=O)c2ccc(Br)cc2)CC1)Nc1ccc2c(c1)OCCO2	0%	33%	-35%	9%	7.2%	-12%	u	-2%
COc1ccccc1CN(C)C(=O)c1cc(-c2cccs2)nc2ccccc12	0%	-8%	-2%	x	x	u	u	-7%
Cc1c(NC(=O)Nc2ccccc2Cl)sc(=S)n1C	24%	15%	-8%	u	2.7%	-18%	-6%	-55%
CC(C)c1ccc(/C=C/C(=O)NCCCN2CCOCC2)cc1	-2%	-25%	x	x	x	u	-28%	-1%
CC1(C)Cc2c(sc(/N=C/N3CCOCC3)c2C#N)C(C)(C)N1	-12%	12%	-19%	-5%	-2.6%	-2%	3%	2%
CCC(C)N(C(=O)CSc1nc(C)nc2ccccc12)C1CCS(=O)(=O)C1 (stereo not drawn)	-28%	0%	x	x	x	-1%	-18%	-5%
COc1cccc(CNC(=O)C2CCC(=O)N(CCc3cccc(F)c3)C2)c1 (stereo not drawn)	-3%	-1%	-6%	x	x	-5%	-2%	u
COc1ccccc1CC(=O)NCC(c1ccco1)N1CCCCC1 (stereo not drawn)	0%	-2%	x	x	x	x	u	1%
CCCCCCCNC(=O)COc1ccc2c(c1)C(=O)CC(C)(C)O2	-1%	2%	-105%	2%	-8.1%	7%	-18%	-3%
Cc1onc(-c2ccccc2Cl)c1C(=O)NC(=S)NCC(=O)c1ccccc1	34%[activator]	7%	-2%	x	x	x	x	0%
Cc1cccc(CNC(=O)C2CCN(S(=O)(=O)c3ccc4c(c3)CCCN4C(=O)C3CCC3)CC2)c1	u	x	x	22%	-3.7%	-17%[46.1 µM]	x	x
CCc1ccc(-c2cc3c(=O)n(CC(=O)N4CCCC4)nc(C)n3n2)cc1	6%	-6%	-1%	x	x	6%[46.1 µM]	20%[46.1 µM]	-9%
(listing goes on)
SMILES	StopGo reporter	RE007 growth inh	NS1 function inh	Cruzain noTriton	Cruzain inh Det	LASV entry inh	Marburg entry inh	SARS PLpro yeast
Cc1cccc(C)c1NC(=O)COC(=O)c1c2c(nc3ccccc13)/C(=C\c1ccc3c(c1)OCO3)CCC2	13%	5%	0%	7.9µM*	-0.9%	u	-8%&2%	-4%
O=C(Nc1ccc(F)c(Cl)c1)Nc1cnccn1	-7%	-2%	-2%	x	x	x	x	0%
Fc1ccc(-c2noc3ncnc(N4CCN(c5ccccc5)CC4)c23)cc1	u	x	x	-13%	-9.9%	0%[46.1 µM]	x	x
CC(C)CCNC(=O)C(=O)Nc1ccc2c(c1)N(S(=O)(=O)c1cccs1)CCC2	8%	21%	x	x	x	u	u	-3%
CCOCCCn1c(=N)c(C(=O)NCc2ccco2)cc2c(=O)n3ccccc3nc21	-5%	x	x	-18%	-13%	-4%[46.1 µM]	u	x
CCN1C(=O)c2cccc3c(S(=O)(=O)NCc4cccnc4)ccc1c23	13%	8%	6%	3%	-1.5%	-14%	u	2%
O=C1c2ccccc2C(=O)N1CCc1nc2ccccc2c(=O)n1-c1ccccn1	3%	0%	-7%	0%	3.0%	13%	11%	-5%
O=C(O)c1ccc(CS(=O)(=O)c2cccc(C(F)(F)F)c2)o1	6%	9%	5%	1%	2.1%	4%	4%	-2%
CC(C)c1ccc(NC2CCCN(C(=O)c3ccc(N4CCOCC4)cc3)C2)cc1 (stereo not drawn)	28µM*	-4%	-12%	x	x	-26%	-26%	-1%
CCC(=O)c1cn(CC(=O)Nc2c(C)cccc2C)c2ccccc12	-19%	-5%	1%	x	x	x	x	0%
CCCCCN1CC(O)=C(c2nc3ccccc3[nH]2)C1=N	36%[activator]	18%	x	x	x	16%	u	-1%
CC(Sc1nnnn1C1CCCCC1)C(=O)O (stereo not drawn)	-11%	u	-4%	x	x	-18%	u	-1%
